# Source: PubChem BioAssay
# Calb FLC – C. albicans growth modulation with fluconazole; C. albicans CaCi-2 (fluconazole-resistant clinical isolate) + fluconazole, Alamar Blue growth, 48 h; growth inhibition, % (concentration not given with the values); actives 0.57% (n = 300,000);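 active = most replicates above 75%; inconclusive = exactly half above 75%; inactive = most below 75%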;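 note: all wells also contain fluconazole at 8 µg/ml as a sub-toxic cotreatment; 0% = median of DMSO wells and 100% = median of geldanamycin control wells; wells of about 8 µL received 7.5 nL stock; the first replicate is given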
# Beta2AR agonist – activates human beta-2 adrenergic receptor causing internalization; P07550; response, % (concentration not given with the values); Am2.2-beta2AR cells, FAP receptor internalization, flow cytometry; reference of the scale not given here; actives 0.43% (n = 340,000);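 active = response above a set limit, near 3 SD of response in nonfluorescent compounds, cut at about 42% in these data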;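 note: stock transfer was 100 nL into about 11 µL; a reference agonist was the positive control; negative values mostly stem from fluorescent compounds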
# Target sequence (P07550 whole entry, looked up): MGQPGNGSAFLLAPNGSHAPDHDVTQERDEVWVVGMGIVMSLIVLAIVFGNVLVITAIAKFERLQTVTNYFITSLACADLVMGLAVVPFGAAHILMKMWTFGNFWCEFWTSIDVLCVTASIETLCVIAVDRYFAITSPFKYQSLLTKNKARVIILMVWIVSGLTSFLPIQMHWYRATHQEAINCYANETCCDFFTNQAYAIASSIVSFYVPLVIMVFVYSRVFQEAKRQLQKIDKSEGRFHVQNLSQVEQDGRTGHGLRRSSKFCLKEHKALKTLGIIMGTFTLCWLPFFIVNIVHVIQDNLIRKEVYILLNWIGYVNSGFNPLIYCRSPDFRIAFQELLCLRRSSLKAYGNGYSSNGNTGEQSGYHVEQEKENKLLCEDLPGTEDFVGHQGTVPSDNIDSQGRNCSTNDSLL
# RanGTP-Impb inh – disruptors of Ran-importin-beta complex formation – biochemical, FRET, CFP-Ran, YFP-importin-beta, homogeneous, primary screen | cell-free CFP-Ran/YFP-importin-beta FRET ratio | inhibition, % (no concentration beside the values) | actives 1.1% (n = 300,000) | AID 2216;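 active = most replicates above 15%; inconclusive = exactly half above 15%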;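 note: 0% = DMSO wells and 100% = Ran loaded with GDP instead of GTP; wells of about 40 µL received 100 nL stock; the first replicate is given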
# ALR H2O2 inh – blocks human ALR sulfhydryl oxidase activity; inhibition, % (no concentration beside the values); purified ALR, DTT oxidation, H2O2 HRP-luminol luminescence; actives 3.8% (n = 290,000); P55789;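 active = mean and each replicate at 75% or more; inconclusive = only one of the two met; inactive = neither met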;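 note: stock transfer was 7.5 nL into about 7.5 µL; 0% = neutral wells and 100% = wells with inactivated enzyme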
# Target sequence (P55789 whole entry, looked up): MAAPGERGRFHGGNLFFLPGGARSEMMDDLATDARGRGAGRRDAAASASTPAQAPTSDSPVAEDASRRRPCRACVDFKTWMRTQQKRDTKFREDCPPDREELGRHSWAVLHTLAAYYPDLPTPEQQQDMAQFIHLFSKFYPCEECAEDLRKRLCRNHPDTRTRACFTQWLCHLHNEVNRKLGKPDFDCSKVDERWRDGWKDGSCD
# HNF4A DNA FP – change in binding of human HNF4 alpha to DNA; AID 1224865; actives 0.3% (n = 360,000); HNF4a-FITC DNA binding, fluorescence polarization, 1 h; P41235; activity change, % at 10 µM; in the data active = activity change above about 30%, passing the limit was not always enough;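 note: controls were the assay level and a saturating level of protein; the project sought stronger binding though the title names inhibitors; some compounds called inactive have numbers as strong as hits; positive values seem to mean higher polarization but the record does not say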
# Vif TR-FRET – inhibitors of Vif binding to APOBEC3G peptide, primary screen, biochemical, TR-FRET, GST-Vif 1-94, biotin-A3G peptide, dose response retest (AID 1117319) | TR-FRET GST-Vif / biotin-A3G peptide binding; higher % means a stronger effect; test concentration not given here; strong numbers were not always called active | one-dose inhibition, %; IC50 in µM for titrated hits | actives 0.57% (n = 260,000);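 active = above the screen mean plus three standard deviations and confirmed in dose response; inconclusive = results disagree or hit not tested in dose response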;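 note: Vif residues 1-94 fused to GST binding biotinylated APOBEC3G peptide 110-148; 0% = full assay without inhibitor and 100% = GST in place of GST-Vif; retest series ran down from 100 µM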
# LANA-H2A inh – blocks KSHV LANA binding to histone H2A/H2B; Q9QR71; cell-free LANA-H2A/H2B peptide, fluorescence polarization; inhibition, % (no concentration beside the values); actives 0.6% (n = 320,000); AID 2629; in the data active = inhibition mostly above about 10%, no sharp cut-off; inactive = mostly below about 6.7%;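 note: stock transfer was 7.5 nL into about 10 µL; 0% = median of vehicle wells and 100% = median of positive control wells; one replicate is shown; the record names a cut of 25% in any replicate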
# * = called active by the depositor; ? = inconclusive; · = not tested or not shown.
SMILES,Calb FLC,Beta2AR agonist,RanGTP-Impb inh,ALR H2O2 inh,HNF4A DNA FP,Vif TR-FRET,LANA-H2A inh
Cc1cccc2c1NC1(CCCC1)CC2C (stereo not given),-6,10,-2.6,-16,-5.6,>100µM*,2.0
CCCCOC(=O)c1nnc(-c2ccccc2)o1,3,0,-1.2,9,3.4,0%,-0.6
CCNC(=O)/C(C#N)=C/c1c(N2CCN(c3ccccc3)CC2)nc2ccccn2c1=O,-1,-2,8.9,38,-1.5,-2%,-0.2
Cc1cccc(C(=O)OC(C)CN2CCN(C)CC2)c1 (stereo not given),-8,-1,-1.0,-6,-0.4,·,-0.2
COc1ccc(C(=O)Nn2c(C3CCC3)nc3ccccc3c2=O)c(OC)c1,-2,-3,-1.3,-4,2.0,9%,1.8
COCCCN1C(=O)c2[nH]nc(-c3ccccc3O)c2C1c1cccc(Cl)c1 (stereo not given),24,-1,-0.1,14,4.8,1%,-4.9
CCCNC(=O)C(Cc1ccccc1F)NC(=O)c1ccc(C#N)cc1 (stereo not given),·,-1,·,-6,2.4,·,0.5
COc1ccccc1/C=C/c1nc(S(=O)(=O)c2ccccc2)c(N(C)C)o1,-2,19,-0.2,23,6.8,-2%,-0.3
CCc1nc(SCC(=O)NNC(=O)C2CCCCC2)c2ccccc2n1,-44,-6,-0.9,-9,-2.4,-1%,2.2
Cn1cnc([N+](=O)[O-])c1Oc1cccc2ccccc12,-6,9,1.7,-99,5.2,16%,5.3
Cc1ccc(S(=O)(=O)CCC(=O)N(CCN2CCOCC2)c2nc3ccccc3s2)cc1,3,3,0.1,13,2.6,1%,5.3
CC1CCCC/C1=N\NC(=S)Nc1cccnc1 (stereo not given),?,-1,-4.4,98*,4.1,5%,-3.3
COc1ccc(NC(=O)N(C)C[C@H]2Oc3c(NC(=O)NC(C)C)cccc3C(=O)N([C@H](C)CO)C[C@@H]2C)cc1,·,-6,·,-3,0.0,·,-1.5
COc1ccccc1CCNC(=O)Nc1cccc([N+](=O)[O-])c1,-25,11,?,-12,-1.9,-3%,6.1
COc1cc(NC(=O)CCCn2c(=O)oc3ccccc32)cc(OC)c1,·,4,·,-10,-0.7,-2%,-1.6

# Further entries.
SMILES,Calb FLC,Beta2AR agonist,RanGTP-Impb inh,ALR H2O2 inh,HNF4A DNA FP,Vif TR-FRET,LANA-H2A inh
COc1ccc(C(C)=O)c(OC(=O)c2ccc(OC)c(OC)c2)c1,-2,0,10,-3,3.7,6%,0.7
Cc1nn(C)c(C)c1/C=N/NC(=O)CCn1nc(C)c([N+](=O)[O-])c1C,13,4,-4.7,-12,1.6,·,0.8
O=C(CCN1C(=O)/C(=C\c2cccs2)SC1=S)Nc1ccccn1,5,-3,-6.5,-2,22,0%,-1.0
COc1cccc(/C=N/NC(=O)c2nnn(-c3nonc3N)c2C(C)C)c1,4,13,-2.3,-4,6.2,24%,2.9
Cc1[nH]c(=O)[nH]c(=O)c1S(=O)(=O)NCCc1ccc(S(N)(=O)=O)cc1,3,-1,-1.8,-4,5.9,8%,-5.1
CC(C)c1ccc(OCc2nnc(SCC(=O)N3CCCCC3)o2)cc1,-32,-8,0.0,-7,-0.3,·,-1.9
CCOc1cc(S(=O)(=O)Nc2ccccc2CC)ccc1Cl,-23,-4,-3.6,-19,-1.2,-5%,4.7
CC(=O)C1(C)C(=O)N(c2ccc(C)cc2)C(=O)N1c1ccc(C)cc1 (stereo not given),·,10,·,·,2.9,-6%,·
CC(CC(=O)Nc1ccc(S(=O)(=O)Nc2ncccn2)cc1)c1ccccc1 (stereo not given),-12,-4,4.6,-2,-3.5,·,-8.2
O=C(Nc1cccc(S(=O)(=O)N2CCOCC2)c1)C1COc2ccccc2O1 (stereo not given),·,0,·,·,-4.3,7%,·
CCn1c(N2CCN(C(=S)NCC(C)C)CC2)nc2ccccc21,-6,-3,2.7,-2,0.8,-7%,0.0
Cc1cc(C)c(S(=O)(=O)N2CCN(C(=O)c3cc4ccccc4oc3=O)CC2)c(C)c1,·,-7,·,5,-1.2,-4%,3.0
CCOc1cccc(NC(=O)C2CC(=O)N(C)C(=Nc3ccccc3)S2)c1 (stereo not given),7,1,8.4,-9,1.5,3%,3.1
Cc1ccc2[nH]c(=O)c(CN(CCCO)S(=O)(=O)c3c(C)ccc4nsnc34)cc2c1,-24,1,-0.2,-6,-1.0,-46%,-5.0
Nc1c(NCCC2=CCCCC2)c(=O)[nH]c(=O)n1Cc1ccccc1,-2,8,?,-2,-3.6,1%,0.7

# (further entries)
SMILES,Calb FLC,Beta2AR agonist,RanGTP-Impb inh,ALR H2O2 inh,HNF4A DNA FP,Vif TR-FRET,LANA-H2A inh
COCC(C)NC(=O)c1cc(-c2ccccc2OC)on1 (stereo not given),-19,-4,1.0,-7,-0.4,-1%,21*
O=C(O)CC(CC(=O)Nc1nncs1)c1ccccc1 (stereo not given),2,-2,3.5,-14,-2.8,5%,-2.7
O=C(O)C1CC=CCC1C(=O)Nc1cccc(F)c1 (stereo not given),7,8,4.5,-7,0.2,6%,0.4
COc1cc(OC)cc(C(=O)N[C@H](C(=O)OCC(=O)Nc2ccc(C(C)C)cc2)C(C)C)c1,-7,-15,-5.1,-9,3.0,3%,-0.3
COc1ccccc1/C=C/C(=O)NCC(=O)n1nc(C)cc1C,5,6,-0.4,-22,0.5,-4%,-2.9
COc1ccccc1NC(=S)N1CCC(NC(=O)c2ccco2)CC1,-3,0,4.5,-4,-4.4,-10%,0.6
COC(=O)c1ccc(OC(=O)c2ccc(OC)c(OC)c2)c(OC)c1,-6,2,-2.2,0,3.1,-5%,5.3
Cc1ccccc1CCN(C(=O)Cn1nnc2ccccc21)C(C(=O)NC(C)(C)C)c1ccsc1 (stereo not given),3,3,-0.9,1,-3.0,-4%,1.8
COc1ccc(/C=C/c2onc(C)c2S(=O)(=O)N2CCC(C(=O)N3CCC(C)CC3)CC2)cc1,1,-11,0.8,-3,0.5,·,-1.6
COc1ccc(N2CCN(C(=O)C3CCCN(S(=O)(=O)c4ccc(F)cc4)C3)CC2)cc1 (stereo not given),1,-5,4.0,27,0.1,·,3.5
Cc1ccc(NC(=O)C(=O)NCCc2c[nH]c3ccccc23)c(C)c1,-3,8,-1.8,-1,2.9,7%,11
COc1ccccc1CN1CCNC(=O)C1CC(=O)O (stereo not given),-6,-2,0.9,-7,0.7,-3%,1.4
Cc1ccc2c(c1)C1CN(C)CCC1N2Sc1ccccc1[N+](=O)[O-] (stereo not given),97*,-1,0.5,·,0.3,·,2.6
CCOC(=O)CSc1nc2c(sc3ccccc32)c(=O)n1CCCN1CCOCC1,14,7,?,-9,6.4,-4%,-3.3
CCN(CC)CCOC(c1ccccc1)c1ccc(C)cc1 (stereo not given),-3,-1,10,-6,1.1,0%,-14

# Other structures
SMILES,Calb FLC,Beta2AR agonist,RanGTP-Impb inh,ALR H2O2 inh,HNF4A DNA FP,Vif TR-FRET,LANA-H2A inh
CCOc1ccc(OCCNC2CCCC2)cc1,-14,-6,-5.4,·,-5.0,-6%,4.6
C=CCn1cc(C(=O)OCC)c(=O)c2cc(F)c(F)cc21,0,-4,2.3,6,1.3,5%,2.8
COC(=O)C(C)n1cnc2c(nnn2-c2ccc(OC)cc2)c1=O (stereo not given),9,3,-2.8,-2,-0.3,-1%,-4.4
CCOc1ccc(NC(=O)CN(C)C(=O)Cc2c(C)nc3ccccc3c2C)cc1OCC,7,1,-3.6,-2,5.3,3%,-6.1
Cc1ccc(NC(=O)CN2C(=O)COc3ccc(S(=O)(=O)N4CCOCC4)cc32)cc1F,0,-5,0.5,·,1.9,·,-0.9
Cc1ccc(NC(=O)C(=O)NCCN2CCN(S(=O)(=O)c3ccccc3)CC2)cc1C,0,-6,-2.1,-3,0.4,·,-2.8
COc1ccc(/C=N/n2c(SC)nnc(C(C)(C)C)c2=O)c(OC)c1,-1,-7,2.0,-5,-1.4,-3%,3.0
CN(CC(=O)Nc1ccc(N2CCOCC2)cc1)C(=O)c1cn(-c2ccccc2)nc1-c1ccccc1,-8,-7,1.3,·,2.7,2%,0.7
COC(=O)CCC(=O)N1CCCC(C(=O)c2ccc(Cl)cc2C)C1 (stereo not given),0,7,-2.0,0,5.0,·,-4.1
O=C(c1cccc(N2C(=O)C3CC=CCC3C2=O)c1)N1CCN(c2ccccc2)CC1 (stereo not given),·,0,·,·,1.9,11%,-4.7
Fc1ccc(CN2CCN3CCCC3C2C2CCCCC2)cc1F (stereo not given),·,-5,·,-1,3.1,16%,-2.8
CN(C)C=Nc1ccc2nn(-c3ccccc3)nc2c1,-58,-14,-0.4,-11,1.9,-1%,-0.6
CCc1sc(C(=O)NCc2ccco2)cc1Br,-10,-3,?,3,-2.7,·,-13
O=[N+]([O-])c1cccnc1-n1cnc2ccccc21,-2,-2,3.2,-10,0.9,-1%,1.2
